From PubChem BioAssay
Rango-impB inh = inhibitors of Rango-importin beta complex formation. Q14974. Rango CFP/YFP FRET sensor + importin beta, 45 min. Potency, µM (titrated, usually from 92.2 µM), inactives show at the top dose inhibition of complex formation. 340,000 compounds, 0.031% hits; active = rising FRET ratio curve, often small or poorly fitted; inconclusive = mostly compound fluorescence or quenching in the first reads; inactive = flat curves in all reads;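 further: potency means the concentration at half of the fitted maximal effect; 0% = DMSO wells and 100% = buffer wells lacking importin beta; nearly all actives have a fitted effect of over 15% in size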
Target sequence (Q14974 whole entry, looked up): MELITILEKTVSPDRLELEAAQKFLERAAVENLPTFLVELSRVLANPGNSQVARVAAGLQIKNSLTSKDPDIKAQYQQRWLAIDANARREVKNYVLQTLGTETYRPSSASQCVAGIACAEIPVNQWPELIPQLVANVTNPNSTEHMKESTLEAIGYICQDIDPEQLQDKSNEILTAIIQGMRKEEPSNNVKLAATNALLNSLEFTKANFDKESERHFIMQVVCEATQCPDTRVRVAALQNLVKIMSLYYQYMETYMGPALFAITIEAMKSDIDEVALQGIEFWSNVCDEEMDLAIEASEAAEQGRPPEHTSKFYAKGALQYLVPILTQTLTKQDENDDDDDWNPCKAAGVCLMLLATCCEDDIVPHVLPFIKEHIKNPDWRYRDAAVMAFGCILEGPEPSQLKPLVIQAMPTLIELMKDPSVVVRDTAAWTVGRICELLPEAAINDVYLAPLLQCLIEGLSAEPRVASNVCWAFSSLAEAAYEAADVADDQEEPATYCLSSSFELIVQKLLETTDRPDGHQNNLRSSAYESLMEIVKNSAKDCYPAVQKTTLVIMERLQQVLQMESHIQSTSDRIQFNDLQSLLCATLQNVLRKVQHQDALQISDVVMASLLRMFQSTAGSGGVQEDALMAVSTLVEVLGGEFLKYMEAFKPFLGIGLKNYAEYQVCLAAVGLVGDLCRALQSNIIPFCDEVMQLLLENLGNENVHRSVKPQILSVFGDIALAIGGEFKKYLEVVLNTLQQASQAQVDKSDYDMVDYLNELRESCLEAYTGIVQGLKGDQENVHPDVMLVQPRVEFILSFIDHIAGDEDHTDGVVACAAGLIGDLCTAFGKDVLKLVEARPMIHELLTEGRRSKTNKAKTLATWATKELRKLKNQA
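FRET biosensor Rango (snurportin 1 IBB between N-terminal EYFP and C-terminal Cerulean), 50 nM in PBS/1 mM DTT/0.02% Tween-20/0.1% BSA, preincubated 5 min RT with compound; 0.125 microM importin beta added, 45 min RT, CFP/YFP FRET ratio read.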
GLA inh pH 4.5 = inhibitors of human alpha-galactosidase A at pH 4.5. activity change, negative = inhibition, % at 105 µM. 230,000 tested, under 10 active. purified enzyme, 4-MU-alpha-Gal fluorescence, pH 4.5. AID 1467. P06280; inconclusive = small, poorly fitted or top-dose-only inhibition, or a rising curve; inactive = flat fitted curve, though single readings scatter; no compound was filed as active;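 further: 0% = full activity with enzyme and -100% = basal without enzyme; dose as in the result columns while the protocol names 77 µM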
miR-21 reporter = miR-21 reporter, rising signal | Potency, µM (highest dose often 38.3 µM), inactives show at the top dose reporter change, positive = more light | HeLa miR-21 FLuc reporter, luciferase, 48 h | AID 2288 | 340,000 tested, under 10 active; active = well fitted rising curve with a large enough effect; inconclusive = small, poorly fitted or top-dose-only effect; inactive = no such curve, though single readings can be large or run the other way;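 further: % of control where 0% means no effect; miR-21 action dims this reporter so a rising signal means less miR-21 action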
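HeLa miR-21-FLuc reporter line, endogenous miR-21; 2000 cells/well in DMEM/10% FBS; compound titration up to ~40uM final, 48 h, 37 degree Celsius; luciferase detection reagent, 15 min lysis, CCD luminescence.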
Rango release inh = inhibition of RanGTP-driven Rango-importin beta dissociation. AID 540253. 340,000 compounds, 0.071% hits. Biochemical FRET Rango-importin beta, RanGTP-induced dissociation. O95149+P62826. Potency, µM (top dose mostly 46.1 µM), for the others: at the top dose activity change, negative = inhibition; active means falling FRET ratio curve, often poorly fitted, with flat reads before Ran was added; inconclusive means other falling curves, or compound fluorescence or quenching; inactive means flat or rising ratio curve;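 further: potency means the concentration at half of the fitted maximal effect; % of control where 0% means no effect; nearly all actives have a fitted effect of over 45% in size; -100% = wells without RanGTP and RCC1; the record marks most hits as doubtful in a second field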
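Two FRET readings bracket the reaction: one 5 min after compound meets Rango–importin beta, another 45 min after RanGTP-RCC1 (0.6 uM Ran, 0.2 uM RCC1, 2 mM GTP) is added. Only the second defines inhibition.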
* = called active by the depositor; ? = inconclusive; nt = not tested or not shown; & = joins results of further samples; [ ] = remark or other dose.

canonical_smiles,Rango-impB inh,GLA inh pH 4.5,miR-21 reporter,Rango release inh
CC1(C)CC(=O)C(C(O)c2ccccc2)C(C)(C)N1 (stereo unspecified),-0.9%,nt,0%,-4%
Cc1ccc(C)c2[nH]c(=O)c(CCNC(=O)c3ccc(S(=O)(=O)N4CCCC4)cc3)cc12,-1.8%,nt,-3%,1%
Cc1onc(-c2c(F)cccc2Cl)c1C(=O)Nc1nc2c(s1)CCCC2,-1.7%,-18,17%,-6%
O=C(Nc1ccc(-c2cn3ccsc3n2)cc1)c1ccc(F)c(S(=O)(=O)N2CCOCC2)c1,1.6%,2,26%,13%
Cc1ccc(C)c(-n2c(-c3csc(C)c3)n[nH]c2=S)c1,2.0%,11,2%,11%
CC(=O)c1ccc(C(=O)NC2CC(C)(C)Cc3c2cnn3-c2ccccc2)cc1 (stereo unspecified),-0.6%,nt,-11%,13%
Cc1ccc2[nH]c(=O)c(CN(Cc3cccnc3)C(=S)NCCCN(C)C)cc2c1,5.5%,-6,2%,-25%
CCOc1ccc(-c2nnc3n2N=C(c2ccc(OC)cc2)CS3)cc1,2.2%,2,-8%,14%
COC(=O)c1cn(C(=O)c2ccc(Cl)cc2)c2ccccc12,-1.4%,6,-7%,6%
COc1ccc(CNC(=O)C(c2ccc(C)o2)N(Cc2cccs2)C(=O)Cc2cccs2)cc1 (stereo unspecified),?,-12,1%[7.66 µM],-6%
CC1CN(C(=O)CCc2cc(C(C)(C)C)c(O)c(C(C)(C)C)c2)CC(C)O1 (stereo unspecified),4.1%,nt,-1%,-1%
O=C(Nc1ccnn1C1CCN(C2CCCCC2)CC1)c1ccccc1,-0.3%,nt,-2%,-2%
CCC1=Nc2ccccc2-c2nnc(SC)nc2O1,-2.1%,-12,-4%,-6%
Cc1ccc(NC(=O)C(C)Sc2nnc(-c3cccnc3)n2-c2ccccc2)cc1 (stereo unspecified),-1.0%,-3,2%,-2%
O=C(O)c1ccccc1NS(=O)(=O)c1ccc(NN=Cc2ccc(F)cc2)c([N+](=O)[O-])c1,-0.1%,nt,nt,-1%
O=C(NC1CCCCC1)C(c1ccc(F)cc1)N(Cc1ccco1)C(=O)CN1C(=O)c2ccccc2S1(=O)=O (stereo unspecified),-2.8%,-2,-2%,-19%
N/C(Cc1cccc2ccccc12)=N\OC(=O)Cc1cccs1,-0.7%,10,-65%,-21%
Nc1c(C(=O)NCCc2ccccc2)nnn1Cc1ccccc1,0.9%,4,-33%,3%
CC(=O)C(Sc1nccc(-c2cccs2)n1)C(C)=O,0.0%,-4,-51%,-4%
Cc1ccc(NC(=O)CSc2ccc(C(N)=O)cc2[N+](=O)[O-])cc1,0.0%,1,-36%,-8%
Cc1ccc2c(c1)sc(C)[n+]2CCCS(=O)(=O)[O-],0.0%,-16,2%,12%
CCCn1c(SCC(=O)N2c3ccc(F)cc3CCC2C)nnc1-c1ccccn1 (stereo unspecified),0.4%,3,0%,1%
O=C(Nc1ccc2c(c1)OC1(CCCC1)O2)C1CC1,-2.4%,0,-47%,5%
CSc1ccccc1NC(=O)c1cc(C2CC2)on1,-3.7%,0,-55%,4%
O=C(NC1CCCC1)c1cc(-c2ccccc2)nc2ccccc12,-6.6%,nt,-1%,2%
C=C1CCN([C@@H](CC(C)C)C(=O)N2CCOCC2)S(=O)(=O)c2ccccc21,1.1%,nt,nt,0%
N#C/C(=C(/O)c1ccc(C(=O)c2ccccc2)cc1)c1nc2ccccc2[nH]1,3.5%,-7,0%,-8%
Cc1cc(=O)oc(C)c1C(=O)NCc1ccccc1,?,-20,0%,9%
O=C(CN1C(=O)C2C3C=CC(C3)C2C1=O)OCC(=O)c1ccccc1 (stereo unspecified),?,0,-5%,-28%
NC(=O)c1c(NC(=O)CN2C(=O)NC(Cc3ccccc3)C2=O)sc2c1CCC2 (stereo unspecified),?,6,-6%,21%
COc1ccccc1NC(=O)c1sc2ncn(Cc3ccc(C)cc3)c(=O)c2c1C,-4.9%,5,-5%,-22%
Nc1ncc(CN2CCCC(C(=O)Nc3ccc(-c4ccco4)cc3)C2)cn1 (stereo unspecified),?,nt,-8%,?
O=C(CCC(=O)c1ccc(F)cc1)Nc1cc(Cl)cc(Cl)c1,-1.3%,4,-9%,10%
COc1ccc(/C=C/C(=O)NC(=S)N2CCSCC2)cc1,-5.1%,-1,-25%,4%
Cc1ccc(NC(=O)COC(=O)CCC(=O)c2cccs2)c(C)c1,-1.3%,3,-4%,-6%
O=C(c1ccc(S(=O)(=O)N2CCCC2)cc1)N1CCCCCC1,-4.3%,9,1%,1%
COc1ccc(OC)c(NC(=O)Nc2ccc3c(c2)CCC3)c1,-2.6%,nt,-16%,0%
Cc1ccccc1OCC(=O)OCC(=O)Nc1cc(C(F)(F)F)ccc1N1CCOCC1,3.5%,4,-5%,-8%
N#C/C(=C(/O)COC(=O)CSc1ccc2ccccc2c1)c1nc2ccccc2[nH]1,?,0,4%,?
O=C(Nc1cccnc1)C1CCN(S(=O)(=O)c2cccc3nonc23)CC1,-0.1%,-4,1%,-4%
Cc1ccc(CSCC(=O)Nc2c(C)n(C)n(-c3ccccc3)c2=O)cc1,5.0%,-4,0%,14%
COc1ccc(OC)c(-c2nnc(SCC(=O)N3CCCC3)o2)c1,?,nt,-7%,-20%
c1cncc(CNc2ncnc3sc4c(c23)CCC4)c1,-3.2%,6,4%,0%
CCOC(=O)N1CCC(NC(=O)c2cc3c(-c4cccc(OC)c4)nn(C)c3s2)CC1,0.5%,-9,4%,1%
COc1cc(N(Cc2ccccc2)Cc2ccccc2)c2ncn(C(C)C)c2c1,3.6%,nt,nt,-2%
O=C(NCCc1ccccc1)c1ccccc1[N+](=O)[O-],3.3%,nt,-33%,5%
COC(=O)c1ccc(CNC(=O)COC(=O)Cc2ccsc2)cc1,3.8%,4,-2%,3%
COC(=O)Nc1ccc2c(c1)N(C(=O)CCN(C)C)c1ccccc1CC2,?,nt,0%,0%
CCC(CC)N1CCN(Cc2nc3ccc([N+](=O)[O-])cc3c(=O)n2-c2ccccc2F)CC1,-0.2%,nt,-4%,-6%
O=C(Cn1nnc(-c2ccccc2)n1)NCC(=O)Nc1ccc(F)c(F)c1F,-2.6%,nt,nt,10%
CCC(=O)N(CC)C1=C(O)c2ccccc2C(=O)C1=O,2.0%,-21,-3%,3%
CNC(=S)N1CCN(c2ccc([N+](=O)[O-])cc2)CC1,-2.3%,-1,3%,0%
COc1ccc(/C=C2\SC(=O)NC2=S)cc1OC,?,-18,-28%,-3%
Cc1cc(Nc2nnnn2-c2ccccc2)n(-c2ccccc2)n1,1.4%,-6,3%,9%
COc1cc(=O)[nH]c(=O)n1C(=O)Cc1ccccc1,2.9%,5,-5%,8%
CC(C)(C)NS(=O)(=O)c1ccc(CCC(=O)NCc2ccco2)cc1,-1.1%,-1,-7%,4%
Cc1ccnc(NC(=O)Nc2cccc(F)c2)n1,3.7%,9,-41%,-13%
Cc1nc2ccc(F)cc2cc1C(=O)NCC1CCCO1 (stereo unspecified),?,0,-3%,-9%
Cc1ccc(NC(=O)c2ccncc2)cc1S(=O)(=O)N(C)C,0.0%,2,-8%,6%
O=C(COc1ccc2c(-c3ccccc3)cc(=O)oc2c1)NC1CCS(=O)(=O)C1 (stereo unspecified),-5.7%,nt,nt,6%

Entries of single compounds as entered above:
Results for `c1cncc(CNc2ncnc3sc4c(c23)CCC4)c1` = Rango-impB inh: -3.2%; GLA inh pH 4.5: 6; miR-21 reporter: 4%; Rango release inh: 0%
Results for `O=C(Cn1nnc(-c2ccccc2)n1)NCC(=O)Nc1ccc(F)c(F)c1F` = Rango-impB inh: -2.6%; GLA inh pH 4.5: nt; miR-21 reporter: nt; Rango release inh: 10%

New compounds follow:
canonical_smiles,Rango-impB inh,GLA inh pH 4.5,miR-21 reporter,Rango release inh
CCCCCCN=C(C)C1=C(O)C(C(=O)OC)C(C)(C)CC1=O (stereo unspecified),4.0%,3,2%,-6%
CCN(CC)C(=O)C(=O)N/N=C/c1ccc(Cl)cc1Cl,3.0%,4,-1%,-8%
O=C(CSc1ccccc1)Nc1ccc(C(=O)Nc2cccc(O)c2)cc1,0.8%,-8,-19%,14%
O=C(Nc1ccc2c(c1)OCCO2)c1ccc(Br)c(S(=O)(=O)N2CCOCC2)c1,-0.1%,1,25%,10%
Cc1cc(C)cc(N(C(=O)c2csnn2)C(C(=O)NC(C)(C)C)c2ccccn2)c1 (stereo unspecified),-0.3%,-12,3%,-8%
O=C(Nc1cccc(Br)c1)C1CC(=O)N(C2CCCC2)C1 (stereo unspecified),-0.2%,nt,nt,-6%
CC(C)N=C1CC(C)(C)CC(=O)/C1=C(/O)CCCN1C(=O)c2ccccc2C1=O,3.2%,8,-5%,1%
Cc1c(Cl)cccc1NC(=O)CSC(N)=O,1.9%,-10,0%,-13%
O=C1c2ccccc2C(=O)N1CCC(=O)N1CCc2ccccc21,7.1%,nt,nt,4%
Cc1ccc(O)c(NC(=O)Cc2ccc3ccccc3c2)c1,1.0%,nt,-13%,5%
Nc1nc2c(ncn2-c2ccccc2)c(=O)[nH]1,-3.8%,nt,nt,-2%
CCc1n[nH]c(=S)n1/N=C/c1ccccn1,1.5%,nt,-3%,4%
c1ccc2c(c1)nnn2CNc1nccs1,-1.1%,3,-4%,19%
COc1ccc(NC(=O)C2CCCN(C(=O)Nc3cccc(OC)c3)C2)cc1 (stereo unspecified),-0.7%,nt,-6%,8%
O=C1c2ccccc2C(O)(c2ncc[nH]2)N1C1CCCCC1 (stereo unspecified),1.5%,8,-1%,-25%
C/C(=N\Nc1ccc([N+](=O)[O-])cc1)c1cc2ccccc2o1,?,2,-33%,?
CCCCN(C(=O)C1=COCCO1)c1c(N)n(Cc2ccccc2)c(=O)[nH]c1=O,-1.1%,nt,nt,-11%
CN(Cc1ccccc1)C(=O)C1CCN(S(=O)(=O)c2ccc3nc4c(c(C(=O)O)c3c2)CCCC4)CC1,?,nt,-1%&2%,-8%
Cn1c(=O)c2c(nc(CN3CCN(C(=O)c4ccco4)CC3)n2Cc2ccccc2)n(C)c1=O,-5.6%,-7,-5%,-7%
O=C(CSc1nc2ccccc2s1)c1ccc(O)cc1O,0.8%,nt,-36%,2%
O=C(NCCc1c[nH]c2ccccc12)C(=O)NCC1OCCN1S(=O)(=O)c1cc(F)ccc1F (stereo unspecified),0.7%,7,21%,-3%
CCCCCCC(=O)N(O)C1CC(=O)N(c2ccc(F)cc2)C1=O (stereo unspecified),0.8%,6,-1%,-16%
Cc1cccc(-n2nc3c(c2NC(=O)C(C)C)CS(=O)(=O)C3)c1C,0.4%,nt,-7%,8%
O=C(N[C@H]1C/C=C\C[C@H](CC(=O)N(CCO)Cc2ccccc2)C(=O)N[C@H](Cc2c[nH]c3ccccc23)COC1=O)OCC1c2ccccc2-c2ccccc21,-0.4%,nt,nt,-9%
O=C(O)Cc1sc(-c2ccc(Cl)cc2)nc1-c1ccccc1,4.1%,-3,-9%,12%
C=CCNC(=O)CSc1nc2scc(-c3ccco3)c2c(=O)n1CC=C,-0.2%,6,-5%,-14%
COCCn1nnnc1C(c1cc2ccc(C)cc2[nH]c1=O)N(Cc1ccco1)Cc1cccs1 (stereo unspecified),1.4%,-7,5%,-8%
CCN(C(=O)COC(=O)CCOc1cccc(C)c1)c1c(N)n(Cc2ccccc2)c(=O)[nH]c1=O,-3.9%,nt,nt,-2%

Some of the compounds tested; the hit share may differ from the screen's.
